PLAP activator = PLAP enzyme activators, biochemical, luminescence, HTS; Alkaline phosphatase, placental type (Homo sapiens), P05187; purified PLAP enzyme, luminescent substrate read-out; stronger effect = higher value; activation fold at 20 µM; 1.2% of 96,000 active; in the data active = activation fold above about 2
PTK2B oligo ant = antagonists of Pyk2 self-association, primary screen, Q293 cells, FERM NanoBiT luminescence, HTS | stronger effect = lower value | z-score (the deposit names both 25 µM and 10 µM) | 0.83% of 99,000 active;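 active = Z-score of -3 or lower, scaled per plate to the spread of control and sample wells; inactive = z-score above -3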;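 also: negative z-score means lost luminescence so less FERM oligomerization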
Target sequence (Q14289 whole entry, looked up): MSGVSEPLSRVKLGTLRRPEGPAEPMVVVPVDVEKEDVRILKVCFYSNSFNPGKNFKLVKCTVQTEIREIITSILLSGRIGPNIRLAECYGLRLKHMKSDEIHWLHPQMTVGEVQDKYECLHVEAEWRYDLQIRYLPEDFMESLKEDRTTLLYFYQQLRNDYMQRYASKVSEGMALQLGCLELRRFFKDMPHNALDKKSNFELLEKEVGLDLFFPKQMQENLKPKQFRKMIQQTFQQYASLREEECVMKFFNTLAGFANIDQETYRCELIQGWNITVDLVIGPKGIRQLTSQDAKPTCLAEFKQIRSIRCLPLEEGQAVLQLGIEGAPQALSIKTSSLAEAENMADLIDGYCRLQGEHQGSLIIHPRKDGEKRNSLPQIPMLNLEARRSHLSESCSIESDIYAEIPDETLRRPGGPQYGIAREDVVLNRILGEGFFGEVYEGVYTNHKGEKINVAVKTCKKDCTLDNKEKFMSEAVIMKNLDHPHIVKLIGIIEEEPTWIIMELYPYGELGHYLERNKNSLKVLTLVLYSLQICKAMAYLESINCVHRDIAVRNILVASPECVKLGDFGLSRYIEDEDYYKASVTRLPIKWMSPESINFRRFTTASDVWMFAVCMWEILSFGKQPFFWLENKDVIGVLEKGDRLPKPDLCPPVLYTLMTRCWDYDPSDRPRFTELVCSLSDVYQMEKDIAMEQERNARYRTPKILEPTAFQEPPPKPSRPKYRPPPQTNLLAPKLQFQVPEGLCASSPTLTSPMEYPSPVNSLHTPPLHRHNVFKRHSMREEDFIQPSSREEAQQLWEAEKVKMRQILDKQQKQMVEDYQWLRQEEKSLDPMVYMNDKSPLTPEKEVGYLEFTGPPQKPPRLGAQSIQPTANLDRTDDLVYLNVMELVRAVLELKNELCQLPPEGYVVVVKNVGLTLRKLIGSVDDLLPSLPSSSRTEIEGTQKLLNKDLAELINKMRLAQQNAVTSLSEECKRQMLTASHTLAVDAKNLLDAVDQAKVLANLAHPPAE
Ecoli WT expand = growth inhibitors of wild-type E. coli, primary screen, strain BW25113, expanded library, OD600; OD600 absorbance; growth inhibition, % at 100 µM; 0.15% of 98,000 active; AID 710, 2007;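 active = growth inhibition above about 50% at one test dose, limit read from the data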;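 also: growth measured after 20 h incubation at 37 °C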
PostGolgi yeast = phenotypic screen on post-Golgi transport, primary screen. post-Golgi transport phenotypic cell assay. inhibition, % at 10 µM. 0.9% of 98,000 active. AID 739, 2007; in the data active = inhibition above about 30%;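 also: yeast cells grown in 1536-well plates; yeast grown about 18 h at 30C before absorbance read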
EphB4 antag = EphB4-ephrin-B2 interaction antagonists, primary screen, biochemical, TNYL-RAW peptide probe, fluorescence polarization. EphB4 LBD / TNYL-RAW-Alexa532 peptide. inhibition, % at 7 µM. AID 720, 2007. 0.15% of 97,000 active. Ephrin type-B receptor 4 (Homo sapiens), P54760;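 active = inhibition above the screen-wide mean inhibition plus 3 SD, cut at about 15% in these data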;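 also: 0% = DMSO wells and 100% = excess unlabeled TNYL-RAW peptide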
An asterisk follows results filed as active; / = no result given. Some of the compounds tested; the hit share may differ from the screen's.

SMILES	PLAP activator	PTK2B oligo ant	Ecoli WT expand	PostGolgi yeast	EphB4 antag
COc1cccc(SCc2noc(C(=O)NCC3CCCO3)c2C(=O)O)c1 (configuration not stated)	1	/	3	-6	3
Cc1ccc(OCC(=O)Nc2ccc(Cl)cc2)c(-n2nc3ccccc3n2)c1	1	-0.32	-2	-11	-3
Cc1cccc(NC(=S)NC2CC3CCC(C2)N3Cc2ccco2)c1C (configuration not stated)	1	0.61	-1	4	-5
CC(C)CCNC(=O)CN(C(=O)Cn1nnc(-c2ccccc2F)n1)c1cccc2c1CCCC2	2.6*	-1	-26	0	0
COc1cccc2[nH]c3c(N4CC(C)CC(C)C4)ncnc3c12 (configuration not stated)	0.9	/	-8	1	-1
Cc1cc[n+](CC(=O)Nc2cc(C(F)(F)F)ccc2Cl)cc1	0.8	0.32	1	1	0
CC(=O)c1c(O)cc(=O)n(-c2ccccc2)c1-c1ccc(C)cc1	1.2	-0.39	4	-1	3
CCOCCCn1c(=N)c(C(=O)NCc2ccc3c(c2)OCO3)cc2c(=O)n3cccc(C)c3nc21	1.5	-1.2	-1	-2	8
Cc1ccc(NC(=O)CSc2nnc(Cn3cnc4ccccc43)o2)c(C)c1	1.2	0.8	-3	0	5
COc1ccc(S(=O)(=O)N2CCCN(CC(=O)Nc3ccc4c(c3)OCO4)CC2)cc1	1.2	-1.2	4	12	-6
CCOC(=O)c1cnc2c(N=Nc3cccc(Cl)c3)c(N)nn2c1N	0.7	/	-13	-7	-4
O=C(Nc1c(C(=O)N2CCOCC2)cnn1-c1ccccc1)c1ccco1	1.1	0.9	-16	0	-1
CCOc1cc(C)c(Cl)cc1S(=O)(=O)N(C)C	1	-0.64	6	-2	9
CS(=O)(=O)N1CCN(c2ccc(C(=O)NC3C4CC5CC(C4)CC3C5)cc2[N+](=O)[O-])CC1 (configuration not stated)	1.3	-0.01	-1	-6	5
Cc1ccc(-c2noc(CN(C(=O)C34CC5CC(CC(C5)C3)C4)C(C)C)n2)cc1	1.1	0.17	-4	5	3
Cc1cccc(NC(=O)CSc2nc3nc(C)cc(C)c3c(=O)[nH]2)c1	1.1	0.34	-4	4	2
CCN(CC)S(=O)(=O)c1cc(-c2nn(C)c(=O)c3ccccc23)ccc1C	1.1	-0.54	11	4	-6
CCOc1cc(/C=N/O)ccc1OS(=O)(=O)c1ccc(C)cc1	1.1	-2.1	0	2	-1
COC(=O)CSc1nc(C)cc(C(F)(F)F)c1C#N	1.1	-0.11	6	-7	15
COc1cc(NC(=O)CSc2ncnc3c2cnn3Cc2ccccc2)cc(OC)c1	0.8	-1.7	1	-1	-8
COC(=O)CCC(=O)Nc1cccc(C(=O)Nc2cccc(Cl)c2)c1	1	0.48	8	-1	9
CCCc1nn(-c2ccccc2)c2c1C(c1cccs1)C(C#N)=C(N)O2 (configuration not stated)	0.9	0.75	-1	-9	3
Cc1ccc(Nc2cc(=O)n(C3CCCCC3)c(=O)[nH]2)cc1C	1	-1.3	-12	-7	-6
COc1ccc(NC(=O)c2ccccc2NC(=O)CSc2ccc(C)cc2)cc1	0.9	-0.32	-9	-1	-1
CCOc1cc2[nH]c(=S)n(CCCC(=O)NCc3ccco3)c(=O)c2cc1OCC	1.1	-0.77	-1	10	2
CN1CCc2c(c3ccccc3n2Cc2ccccc2)C1	1.4	/	4	7	7
O=C(Cc1cccs1)NNC(=S)NCc1ccc(Cl)cc1	0.9	-0.68	13	-2	7
Cc1cccc(N2CCN(C(=O)CCCn3c(=S)[nH]c4cc5c(cc4c3=O)OCO5)CC2)c1C	1.2	-0.89	-2	-8	-7
O=C(Nc1ccc(Cc2ccncc2)cc1)c1ccc(S(=O)(=O)N2CCOCC2)cc1	1.3	-1.7	-12	26	1
O=C(OCc1ccccn1)c1ccc(COc2ccccc2Cl)o1	0.9	1.6	-7	-8	-6
O=C(NCc1ccccc1)c1cnc2n(c1=O)CCS2	1	0.61	2	-4	-7
CCN(CC)CCNC(=O)C1CCC(=O)N(c2ccc(OC)cc2)C1c1ccc(F)cc1 (configuration not stated)	1.4	0.89	0	4	0
CCN(CC)CCN1C(=O)C(=O)/C(=C(/O)c2cccc(OC)c2)C1c1ccccn1 (configuration not stated)	1.2	-0.53	0	5	-4
COc1ccc(CCNC(=O)c2cc(-c3cc(Cl)cc(Cl)c3)oc2C)cc1	0.9	0.89	-12	-9	2
CCNC(=S)NNC(=O)c1cccs1	1.9	-0.24	3	-4	-3
Cc1c(Nc2cc(N3CCCC(C)C3)c3nonc3c2[N+](=O)[O-])c(=O)n(-c2ccccc2)n1C (configuration not stated)	1	0.63	0	3	-6
O=S(=O)(c1cccs1)N1CN(Cc2ccc(Cl)cc2)c2nc3ccccc3nc21	0.9	-1.2	-12	-14	2
O=C(Nc1ncc2c(n1)-c1ccccc1CC2)c1ccc(F)cc1	0.9	-0.34	1	-5	0
Cc1cc([N+](=O)[O-])c2[nH]c(C(=O)N/N=C/c3ccccc3C(=O)O)c(-c3ccccc3)c2c1	1.3	-3*	-4	1	2
O=C(CCCN1C(=O)C2C3C=CC(C3)C2C1=O)N1CCN(c2ccccc2)CC1 (configuration not stated)	1.1	0.12	-4	-2	1
COc1cccc(C(=O)N2N=C(c3cccc(OC)c3)CC2(O)C(F)(F)F)c1 (configuration not stated)	1	-0.06	-8	0	3
CNC(=O)/C(C#N)=c1\s/c(=C/C(=O)OC)c(=O)n1-c1ccccc1	1	-0.83	2	0	3
CCCC(=O)N1CCN(c2ccc(NC(=O)C(C)(C)C)cc2)CC1	1	0.68	4	13	7
COc1ccc(/C=C2\N=C(SC)N(C)C2=O)cc1	1	-0.45	1	-4	2
CON1C(=O)C(=O)N(OC)C2CCCCC21 (configuration not stated)	0.9	0.9	-4	20	-7
O=C1NC(c2ccc(Br)cc2)Nc2sc3c(c21)CCC3 (configuration not stated)	1	-0.46	3	-6	-5
CCOC(=O)CSc1nc(-c2ccccc2)nc2ccccc12	1	-0.75	-11	15	5
CCC(C)(C)n1nnnc1C(C(C)C)N(CCCO)Cc1cc2cc(C)ccc2[nH]c1=O (configuration not stated)	1.4	-0.04	7	4	-3
COc1cccc(Nc2ncc(C(=O)O)c3ccccc23)c1	0.9	0.46	-5	-6	-11
Cc1occc1C(=O)NCc1ccccc1	1.2	1.3	1	6	5
Cc1cccc(Nc2nnc(-c3ccc(C(=O)N4C[C@H]5C[C@H](C4)c4cccc(=O)n4C5)cc3)c3ccccc23)c1	1.5	-0.37	0	2	-6
Nc1c(Cl)ncnc1N1CCOCC1	1.1	1.1	0	7	-7
CSc1nc(N2CCOCC2)c2c3c(sc2n1)CCC3	1.4	0.11	-3	-5	1
CCOc1cc(C(=O)N2CCN=C2SC)cc(OCC)c1OCC	1.4	0.64	0	3	7
CCOC(=O)C1CCN(C(=O)C23CC4CC(CC(C4)C2)C3)CC1	1	-0.38	6	2	2
OCC1N=C(c2ccccn2)OC1c1ccccc1 (configuration not stated)	1	0.16	3	-1	-6
O=C1S/C(=C\c2ccc(N3CCOCC3)o2)C(=O)N1Cc1ccc(F)cc1	1	0.35	-5	-7	8
O=C(O)CCc1nn2c3ccccc3nc2n(CCN2CCCCC2)c1=O	1	-0.13	-3	-12	-2
O=C(NCC1CCCO1)C1CCN(S(=O)(=O)N2CCCC2)CC1 (configuration not stated)	1.1	0.49	3	-3	-2
O=C(NC1(C(F)(F)F)C(=O)Nc2c1c(=O)[nH]c(=O)n2Cc1ccccc1)c1ccc(Cl)cc1Cl (configuration not stated)	0.9	0.72	5	-4	9

Continued.
SMILES	PLAP activator	PTK2B oligo ant	Ecoli WT expand	PostGolgi yeast	EphB4 antag
CCOC(=O)/C=C1\NC(C)(C)Cc2cc(OC)c(O)cc21	1.3	-0.47	8	2	-5
CN1c2cccc3cccc(c23)N(C)C1c1cccs1	1	0.11	-9	6	6
O=C(Cc1ccccc1)NC(Nc1cccc2ccccc12)C(Cl)(Cl)Cl (configuration not stated)	1	-1.5	-1	-1	-3
O=C(N/N=C/c1c(Cl)cccc1Cl)c1cccc(F)c1	0.8	-0.38	-2	2	-4
O=C1Nc2cc(C(=O)N3CCOCC3)ccc2SC1N1CCOCC1 (configuration not stated)	1	/	1	-4	1
COCc1nnc(NC(=O)CSc2ccc(C)cc2)s1	1.1	1.4	-1	0	3
Cc1ccc(SCc2nc(-c3cccnc3)no2)cc1	1.3	-0.1	4	13	-3
Cc1nnc(NC(=O)c2sc3nc(-c4cccs4)cc(C(F)(F)F)c3c2N)s1	1.2	-2.9	6	6	0
CCOC(=O)CSC1=C(C#N)C(c2ccccc2F)C(C(C)=O)=C(C)N1 (configuration not stated)	1	-0.6	4	-5	-2
Cc1ccc(-n2c(=O)cc(N3CCC(C)CC3)[nH]c2=O)cc1	0.9	0.86	3	4	-2
NC(=O)NCc1ccc(Cl)cc1	0.9	0.85	7	-9	-10
COc1ccc(OC)c(NC(=O)C(CC(=O)O)NCc2ccco2)c1 (configuration not stated)	1.1	-0.41	3	5	-3
COc1cc(C2/C(=C(/O)c3ccc(F)cc3)C(=O)C(=O)N2CCCC(=O)O)ccc1O (configuration not stated)	1	0.75	-8	11	-5
Clc1ccc(-c2ccnc(Oc3cc(Cl)ccc3Cl)n2)cc1	0.9	0.33	-2	-9	-6
CCCCC(=O)Nc1cc(C(=O)NCCc2ccccc2)ccc1Cl	1	0.59	-1	2	-3

15 successive compounds already listed, for reference:
SMILES	PLAP activator	PTK2B oligo ant	Ecoli WT expand	PostGolgi yeast	EphB4 antag
COc1cccc(SCc2noc(C(=O)NCC3CCCO3)c2C(=O)O)c1 (configuration not stated)	1	/	3	-6	3
Cc1ccc(OCC(=O)Nc2ccc(Cl)cc2)c(-n2nc3ccccc3n2)c1	1	-0.32	-2	-11	-3
Cc1cccc(NC(=S)NC2CC3CCC(C2)N3Cc2ccco2)c1C (configuration not stated)	1	0.61	-1	4	-5
CC(C)CCNC(=O)CN(C(=O)Cn1nnc(-c2ccccc2F)n1)c1cccc2c1CCCC2	2.6*	-1	-26	0	0
COc1cccc2[nH]c3c(N4CC(C)CC(C)C4)ncnc3c12 (configuration not stated)	0.9	/	-8	1	-1
Cc1cc[n+](CC(=O)Nc2cc(C(F)(F)F)ccc2Cl)cc1	0.8	0.32	1	1	0
CC(=O)c1c(O)cc(=O)n(-c2ccccc2)c1-c1ccc(C)cc1	1.2	-0.39	4	-1	3
CCOCCCn1c(=N)c(C(=O)NCc2ccc3c(c2)OCO3)cc2c(=O)n3cccc(C)c3nc21	1.5	-1.2	-1	-2	8
Cc1ccc(NC(=O)CSc2nnc(Cn3cnc4ccccc43)o2)c(C)c1	1.2	0.8	-3	0	5
COc1ccc(S(=O)(=O)N2CCCN(CC(=O)Nc3ccc4c(c3)OCO4)CC2)cc1	1.2	-1.2	4	12	-6
CCOC(=O)c1cnc2c(N=Nc3cccc(Cl)c3)c(N)nn2c1N	0.7	/	-13	-7	-4
O=C(Nc1c(C(=O)N2CCOCC2)cnn1-c1ccccc1)c1ccco1	1.1	0.9	-16	0	-1
CCOc1cc(C)c(Cl)cc1S(=O)(=O)N(C)C	1	-0.64	6	-2	9
CS(=O)(=O)N1CCN(c2ccc(C(=O)NC3C4CC5CC(C4)CC3C5)cc2[N+](=O)[O-])CC1 (configuration not stated)	1.3	-0.01	-1	-6	5
Cc1ccc(-c2noc(CN(C(=O)C34CC5CC(CC(C5)C3)C4)C(C)C)n2)cc1	1.1	0.17	-4	5	3

Next section
SMILES	PLAP activator	PTK2B oligo ant	Ecoli WT expand	PostGolgi yeast	EphB4 antag
Cc1cccc(Cc2c(C)nc3nc(SCC(=O)NCc4ccco4)nn3c2C)c1	1.3	0.43	4	-4	7
CN1CCN(c2ccc([N+](=O)[O-])cc2C(=O)c2ccc(Br)cc2)CC1	1.3	-0.21	-5	8	5
CCOc1ccc(NC(=O)c2nnn(CC(=O)Nc3ccccc3OC)c2N)cc1	0.9	-0.07	-3	-12	-6
CCOC(=O)c1c(C)[nH]c(C)c1C(=O)COC(=O)c1cccc(S(=O)(=O)N(CC)CC)c1	1.5	0.49	-5	2	-8
COc1cccc(C2CC(C(F)(F)F)n3ncc(C(=O)NC(C)(C)C)c3N2)c1 (configuration not stated)	1.1	-0.22	-5	-7	2
O=C(NCCc1ccc(O)cc1)c1ccc(Cl)cc1	0.9	-1.4	10	7	1
CN(C)S(=O)(=O)Oc1ccc(Cl)cc1C(=O)Nc1cccc(C(F)(F)F)c1	1.1	-1.2	-7	-3	3
O=C(NC1CCCCC1)NC1CC2CCCC(C1)N2C1CCCC1 (configuration not stated)	1.1	-0.85	5	11	0
O=C(NC(Cc1c[nH]c2ccccc12)c1nnc2n1CCCCC2)c1ccccc1 (configuration not stated)	1.2	0.03	-3	-6	1
CC(=O)NC(=S)Nc1ccc(-c2nc3ccc(C)cc3s2)cc1	0.9	0.86	-3	1	2
CCSc1nc2nc(C)cc(C)n2n1	1.1	-0.59	2	-1	-8
CCCCC(=O)N/N=C(\C)CC(=O)Nc1cc(Cl)ccc1OC	0.9	-0.39	5	-6	-3
O=C(c1cccs1)N1CCN(C(=O)C(c2ccccc2)c2ccccc2)CC1	1.3	0.38	5	10	1
CSc1ccc(S(=O)(=O)NCc2ccccc2Cl)cc1	0.9	2	0	-11	0

Bioassay records (PubChem BioAssay)
